Source: PubChem
HNF4A DNA FP – change in binding of human HNF4A to DNA, primary screen, biochemical, fluorescence polarization, FITC-DNA | activity change, % at 10 µM | 1 h | AID 1224865, 2016 | Hepatocyte nuclear factor 4-alpha (Homo sapiens), P41235 | hit rate 0.3% among 360,000; in the data active means activity change above about 30%, passing the limit was not always enough;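 further: controls were the assay level and a saturating level of protein; the project sought stronger binding though the title names inhibitors; some compounds called inactive have numbers as strong as hits; positive values seem to mean higher polarization but the record does not say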
Ecoli growth – E. coli growth inhibition, primary screen, OD600; Escherichia coli growth, 23 h; stronger effect = lower value; OD600 absorbance (no concentration beside the values); hit rate 0.21% among 330,000;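 active means OD600 absorbance below the run mean of sample wells minus 3.6 SD, in any replicate, cut at about 0.56 in these data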;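 further: stock transfer was 300 nL into about 60 µL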
UCH37 DUB inh – inhibitors of human UCH37 deubiquitinase, primary screen, biochemical, Ub-AMC cleavage, fluorescence | purified proteasome/UCH37 | inhibition, % (concentration not given with the values) | hit rate 0.33% among 330,000 | Ubiquitin carboxyl-terminal hydrolase isozyme L5 (Homo sapiens), Q9Y5K5;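 active means mean of two replicates above 20%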;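 further: 0% = compound-free wells with enzyme and 100% = wells lacking proteasome; stock transfer was 100 nL into about 20 µL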
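System: Proteasome-associated human UCH37 deubiquitinase; Input: 0.15 nM proteasome in added enzyme buffer; Also added: Ub-AMC substrate from 1 µM stock; Incubation: 30 min compound-proteasome preincubation then 25 min substrate reaction, room temperature; Detection: fluorescence, ex 355 nm, em 460 nm; Read-out: % inhibition of Ub-AMC cleavage fluorescence; Benchmarks: no-proteasome and no-compound wells.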
LANA-H2B inh – blockers of LANA interaction with H2A/H2B – biochemical, FP readout, HTS, primary screen; Protein LANA1 (Human herpesvirus 8 type P (isolate GK18)), Q9QR71; inhibition, % (concentration not given with the values); cell-free LANA-H2A/H2B peptide, fluorescence polarization; hit rate 0.6% among 320,000; in the data active means inhibition mostly above about 10%, no sharp cut-off; inactive means mostly below about 6.7%;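 further: stock transfer was 7.5 nL into about 10 µL; 0% = median of vehicle wells and 100% = median of positive control wells; one replicate is shown; the record names a cut of 25% in any replicate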
Target sequence (Q9QR71 whole entry, looked up): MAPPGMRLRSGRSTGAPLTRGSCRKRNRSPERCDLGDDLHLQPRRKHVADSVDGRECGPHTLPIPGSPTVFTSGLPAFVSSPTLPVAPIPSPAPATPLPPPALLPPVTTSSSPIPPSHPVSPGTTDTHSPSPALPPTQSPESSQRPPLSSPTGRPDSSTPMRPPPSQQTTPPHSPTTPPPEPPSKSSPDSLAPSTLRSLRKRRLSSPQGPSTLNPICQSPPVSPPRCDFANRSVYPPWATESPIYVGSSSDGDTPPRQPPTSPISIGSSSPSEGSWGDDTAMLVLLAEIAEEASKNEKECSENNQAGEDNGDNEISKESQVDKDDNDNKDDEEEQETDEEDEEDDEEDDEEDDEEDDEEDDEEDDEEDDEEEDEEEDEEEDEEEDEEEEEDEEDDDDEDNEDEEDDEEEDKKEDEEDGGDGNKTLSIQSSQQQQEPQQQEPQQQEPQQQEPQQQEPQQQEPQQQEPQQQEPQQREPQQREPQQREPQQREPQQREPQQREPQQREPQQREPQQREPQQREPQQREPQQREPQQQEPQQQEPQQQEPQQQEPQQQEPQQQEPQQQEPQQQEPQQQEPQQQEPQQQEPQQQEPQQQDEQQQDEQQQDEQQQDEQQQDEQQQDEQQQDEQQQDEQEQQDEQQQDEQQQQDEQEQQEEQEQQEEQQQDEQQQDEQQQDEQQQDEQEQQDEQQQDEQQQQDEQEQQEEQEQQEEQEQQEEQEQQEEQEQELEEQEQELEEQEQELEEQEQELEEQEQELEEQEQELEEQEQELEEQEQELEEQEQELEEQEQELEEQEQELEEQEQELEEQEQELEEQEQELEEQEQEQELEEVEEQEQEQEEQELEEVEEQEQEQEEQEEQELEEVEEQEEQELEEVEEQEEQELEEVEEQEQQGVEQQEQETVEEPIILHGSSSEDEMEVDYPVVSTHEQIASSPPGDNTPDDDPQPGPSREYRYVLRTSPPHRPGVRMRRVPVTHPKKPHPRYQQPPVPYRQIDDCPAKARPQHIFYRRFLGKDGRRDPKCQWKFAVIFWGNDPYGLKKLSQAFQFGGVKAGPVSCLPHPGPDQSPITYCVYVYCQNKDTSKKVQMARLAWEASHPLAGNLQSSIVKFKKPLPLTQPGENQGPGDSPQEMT
B2AR ag – beta2AR agonists driving receptor internalization, primary screen, cell-based, FAP fluorogen, flow cytometry. Beta-2 adrenergic receptor (Homo sapiens), P07550. response, % (concentration not given with the values). AID 504454, 2011. hit rate 0.43% among 340,000. Am2.2-beta2AR cells; reference of the scale not given here;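 active means response above a set limit, near 3 SD of response in nonfluorescent compounds, cut at about 42% in these data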;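 further: stock transfer was 100 nL into about 11 µL; a reference agonist was the positive control; negative values mostly stem from fluorescent compounds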
Vif TR-FRET – inhibitors of Vif binding to APOBEC3G peptide, primary screen, biochemical, TR-FRET, GST-Vif 1-94, biotin-A3G peptide, dose response retest (AID 1117319) | inhibition, %; hits with a dose series show IC50 in µM | hit rate 0.57% among 260,000 | Virion infectivity factor (Human immunodeficiency virus type 1 group M subtype B (isolate … | TR-FRET GST-Vif / biotin-A3G peptide binding; higher % means a stronger effect; test concentration not given here; strong numbers were not always called active;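 active means above the screen mean plus three standard deviations and confirmed in dose response; inconclusive means results disagree or hit not tested in dose response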;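 further: Vif residues 1-94 fused to GST binding biotinylated APOBEC3G peptide 110-148; 0% = full assay without inhibitor and 100% = GST in place of GST-Vif; retest series ran down from 100 µM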
A1 inh – caspase 3/7 activation in MEF A1-2A-BIM cells, primary screen, A1 inhibitor project, cell-based, luminescence, HTS. Caspase-Glo 3/7 luminescence, 3 h; percent of clofoctol response, vehicle zero. caspase activation, % (test concentration not listed). hit rate 0.066% among 330,000. AID 2462, 2010;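 active means over half of replicate activation scores above 10%, or exactly half above 10 with the replicate mean above 10; inconclusive means replicate mean below 10 yet half the replicates above 10; inactive means over half of replicates below 10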;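 further: wells of about 30 µL received 50 nL stock; many hits fall short of the cut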
* hit, by the source's call; u = inconclusive; x = no result given; & = joins results of further samples.

SMILES	HNF4A DNA FP	Ecoli growth	UCH37 DUB inh	LANA-H2B inh	B2AR ag	Vif TR-FRET	A1 inh
Cc1ccc(C2CC(=O)N(c3ccc(F)cc3)C3=C2C(=O)CCC3)cc1 (stereo not drawn)	-0.3	0.71	0.3	7.1	-7	2%	-0.5
Cc1nn(C)cc1C(C)NC(=O)c1cc(COc2c(F)cccc2F)on1 (stereo not drawn)	0.5	0.71	0.1	-3.4	7	8%	-1.0
CCn1cnc2cc(NCc3cccs3)ccc21	1.5	0.61	-2.8	0.6	-5	32%	-1.2
Cc1csc(NC(=O)CS(=O)(=O)Cc2ccccc2)n1	4.3	0.71	3.2	1.3	11	x	0.2
NC1=NC(=O)/C(=C/c2ccc(OCC(=O)O)cc2)S1	2.5	0.64	9.5	1.2	8	-2%	-0.9
Cc1cc(NC(=O)CSCC(=O)Nc2nc3ccc(F)cc3s2)no1	5.3	0.71	2.5	0.3	-6	-7%	-0.1
CC(C)C[C@@H](CN)NC(=O)c1nc[nH]c1C(=O)N[C@@H](Cc1ccccc1)C(=O)CNC[C@H](C)NC(=O)c1nc[nH]c1C(=O)N[C@@H](CC(C)C)C(=O)O	-2.4	x	x	x	2	1%	x
O=C(O)c1cc(NS(=O)(=O)c2ccc(N3CCCCC3)c([N+](=O)[O-])c2)cc(C(=O)O)c1	-2.8	0.72	6.6	-3.9	5	x	0.5
CCC(C)Sc1ccc(-c2nc3ccc(Cl)cn3c2NCc2ccccc2)cc1 (stereo not drawn)	7.6	0.77	-130	-0.4	12	x	0.1
CCn1nc(C)c(NC(=O)CC23CC4CC(CC(C4)C2)C3)c1C	2.6	0.65	3.7	-5.8	1	x	-0.9
Cc1ccc(/C=N/NC(=O)c2ccc3c(c2)OCCO3)s1	2.1	x	x	3.3	2	0%	-4.8
NS(=O)(=O)c1ccc(CCNC(=O)C(=O)C2C(=O)Nc3ccccc32)cc1 (stereo not drawn)	-0.5	0.68	2.8	6.6	-7	x	1.1
O=C(NCc1ccccn1)c1cc(-c2ccccc2)nc2ccccc12	0.8	0.65	-5.0	2.0	-5	-5%	0.4
Cc1ccc(C(=O)N[C@H](C(=O)OCc2nnc(-c3ccccc3)o2)C(C)C)cc1	1.0	0.69	1.3	2.7	3	-7%	0.3
COc1cc([N+](=O)[O-])ccc1NC(=O)CN(C)C	-4.5	0.65	8.7	0.3	0	5%	-0.3
COc1ccc(N/C=C/C(=O)c2ccc3c(c2)OCO3)cc1OC	1.1	0.7	2.7	3.4	6	29%	-2.4
CC1CCN(C(=O)C2CC(c3ccc(F)cc3)=NO2)CC1 (stereo not drawn)	5.7	0.71	-2.0	-2.4	-4	-4%	-0.3
Cc1ccc2nsnc2c1S(=O)(=O)NCc1cccnc1	-0.9	0.67	4.6	-0.3	2	1%	0.6
Fc1ccccc1OCCCCSc1ncccn1	-1.2	0.72	1.6	3.2	2	-5%	-0.3
COc1cccc(CN2CCN(C3CCN(c4ccccc4F)CC3)CC2CCO)c1 (stereo not drawn)	2.6	0.71	3.3	-38	0	-1%	-2.3
CCOC(=O)N1CCC(N(CCN(C)C)C(=S)Nc2ccc(Oc3ccccc3)cc2)CC1	-2.5	0.67	2.0	x	-2	4%	x
CCCCN(C(=O)Cn1nnc2ccccc21)C(C(=O)NCCOC)c1ccc(OC)cc1OC (stereo not drawn)	-0.7	0.73	4.4	4.0	-8	-11%	-0.3
CCC(=O)N1c2ccc(S(=O)(=O)N(CCO)Cc3ccccc3)cc2CC1C (stereo not drawn)	-1.0	0.69	1.5	-0.6	-10	0%	0.0
CC(C)(C)OC(=O)NN1CC(=O)N2[C@@H](Cc3c([nH]c4ccccc34)C2(C)C)C1=O	-0.1	0.64	4.3	-1.6	-4	-5%	0.9
C=CCSc1nnc(NC(=O)C2=COCCO2)s1	-0.6	0.7	5.8	-1.6	-7	-5%	-0.7
Cc1ccc(C)c(Nc2nc(N)c3ccccc3n2)c1	1.1	0.61	-19	-1.5	-7	-29%	0.2
CCOc1ccc(NC(=O)CNC(=O)c2nn(-c3ccc(OC)c(OC)c3)c(=O)c3ccccc23)cc1	0.6	0.65	-1.0	-2.7	54*	-82%	-0.2
CCc1nnc(NC(=O)CCC(=O)N2CCN(C3c4ccccc4-c4ccccc43)CC2)s1	-0.8	0.7	2.5	0.2	16	-8%	1.3
Cc1cc(Cn2nc(-c3ccccc3)cc2C(=O)NCc2cccs2)on1	-0.6	0.71	4.8	2.1	-3	x	-1.9
Cc1cc(C)nc(NS(=O)(=O)c2ccc(NC(=O)c3ccc4c(c3)OCCO4)cc2)n1	2.7	0.69	4.4	-8.4	7	x	-0.9
CN(C)c1cc[n+](Cc2ccccc2)cc1	0.7	0.68	3.8	-6.8	1	12%	-0.2
O=C1CCN(S(=O)(=O)c2cccs2)c2ccc(C(F)(F)F)cc2N1	-3.0	0.66	1.0	-3.8	1	8%	0.9
O=C1CC(C(=O)O)c2ccccc2N1 (stereo not drawn)	1.3	0.69	1.3	8.0	11	2%	-0.6
COc1cc(NC(=O)c2sc3nc(C)nc(N4CCOCC4)c3c2C)cc(OC)c1OC	-0.8	0.69	9.6	-0.8	3	x	-0.8
[N-]=[N+]=NCCN1CCN(Cc2ccccc2)CCC1=O	-0.9	0.65	-0.3	2.2	-1	x	-0.1
Cc1cc(NC(=O)CSc2nc(-c3ccc(Br)cc3)nc3c2c(=O)n(C)c(=O)n3C)no1	0.4	0.71	0.7	-0.7	-6	x	-0.2
COc1ccc(C(=O)NC2CC2)cc1OC1CCN(Cc2ccccc2O)CC1	1.4	0.7	1.4	-62	-4	x	0.9
COc1ccccc1NC(=O)CN1CCN(CC(=O)Nc2ccc(OC)c(OC)c2)CC1	-0.5	0.66	1.7	-3.4	14	-9%	-0.3
Cc1cccc(-n2nnc(C(=O)NCc3ccccc3Cl)c2N)c1	2.4	0.76	3.4	-0.7	0	22%	1.0
Cc1cc(C)n(C(=O)CCCC(=O)n2nc(C)cc2C)n1	0.9	0.73	-0.5	1.4	54*	-6%	u
CC(=O)Nc1nc2ccccc2n1Cc1ccccc1Cl	0.3	0.69	3.4	-2.9	-4	-6%	-1.2
COc1ccc(-c2noc(N3CCC(C(=O)NCc4ccccc4Cl)CC3)n2)cc1	1.9	0.7	2.3	-0.1	-9	x	-0.2
CC(=O)OCC1OC(OCc2cn(C[C@H]3CC[C@@H]([C@@H]4CC[C@H](Cn5cc(COC6OC(COC(C)=O)C(OC(C)=O)C(OC(C)=O)C6OC(C)=O)nn5)O4)O3)nn2)C(OC(C)=O)C(OC(C)=O)C1OC(C)=O (stereo partly drawn)	3.8	x	1.1	-1.5	11	x	-0.4
O=C(COc1ccc(Cl)cc1Cl)NC(=O)NC1CCCC1	-3.4	0.63	2.5	x	-8	1%	x
O=C(CS(=O)(=O)c1ccc(Br)cc1)N1CCOCC1	-4.4	0.72	-0.2	-11	0	5%	-1.5
CCN(CCC(=O)Nc1cc([N+](=O)[O-])ccc1OC)Cc1ccccc1	2.3	0.73	6.9	-5.0	0	-6%	-0.7
COc1ccc(-n2nc3c(c2NC(=O)c2ccc(Br)o2)CS(=O)(=O)C3)cc1	1.3	0.65	1.2	-4.0	1	u	0.2
O=C1C(Nc2ccccc2)=C/C(=N/S(=O)(=O)c2cccs2)c2ccccc21	0.3	x	x	x	49*	26%	-2.0
CC(C)OC(=O)c1nnn(-c2nonc2N)c1CN1CCc2ccccc2C1	0.4	0.65	-0.1	x	0	4%	x
Cc1ccc(S(=O)(=O)N2CCOCC2)cc1C(=O)OCC(=O)NCc1ccc2c(c1)OCO2	2.5	0.7	2.8	-2.4	0	-10%	-1.0
CC(NC(=O)c1ccc(N(C)C)cc1)C(c1cccs1)N1CCN(C)CC1 (stereo not drawn)	-1.1	0.7	5.3	0.3	-6	1%	0.8
CCOc1ccc(S(=O)(=O)N2CCC(C(=O)NCc3ccccn3)CC2)cc1	-0.2	0.69	1.4	-1.4	1	x	-0.4
O=C(NCc1ccc(-c2csnn2)cc1)c1cccs1	-1.4	0.63	0.9	-1.7	-16	9%	0.5
O=S(=O)(c1ccccc1Oc1ccc(Cl)cc1Cl)N1CCCCC1	-1.8	0.7	1.2	-3.5	2	x	0.5
Cc1c(C)n(C)c2ccc(C(=O)NCCCN3CCN(c4ccc(F)cc4)CC3)cc12	3.5	0.64	0.3	1.6	-2	x	0.5
O=[N+]([O-])c1ccc(-c2cn(-c3ccccc3)c(=S)[nH]2)cc1	0.7	x	x	-0.9	2	15%	0.3
COC(=O)c1ccc(NC(=O)c2ccccc2C(=O)Nc2ccc(C(=O)OC)cc2)cc1	0.7	0.69	-2.1	0.0	7	x	0.5
CSc1ncccc1C(=O)NCC12CC3CC(CC(C3)C1)C2	-0.6	0.7	-1.6	-2.0	-1	x	0.6
CC1CCN(C(=O)C2CCN(S(=O)(=O)c3cnc[nH]3)CC2)CC1	2.4	0.71	2.1	7.0	1	-1%	0.7
COC(=O)CC1=NN(c2ccc(OC)cc2)C(=O)C1	0.5	0.67	2.5	-5.7	4	0%	-0.4
The list continues.
SMILES	HNF4A DNA FP	Ecoli growth	UCH37 DUB inh	LANA-H2B inh	B2AR ag	Vif TR-FRET	A1 inh
CCOc1cccc(-c2nn3c(-c4ccco4)nnc3s2)c1	1.5	0.71	-12	0.1	-18	1%	1.0
Cc1sc2ncnc(SCC(=O)N3CCCC3=O)c2c1C	4.9	0.73	-0.6	-2.1	-2	4%	-0.3
Cc1ccc(-n2nc3ccc(N)cc3n2)cc1C	2.2	0.71	-480	0.3	12	16%	-3.2
CS(=O)(=O)N1CCN(C(=O)NC23CC4CC(CC(C4)C2)C3)CC1	-0.7	0.71	5.6	1.3	-4	12%	-0.8
COc1cc(OC)c(OC)cc1CN1CCN(Cc2ccc(C(F)(F)F)cc2)CC1	2.5	0.66	1.6	-1.0	4	x	0.1
Cc1ccc(OCCn2cnc3c2c(=O)n(C)c(=O)n3C)cc1	1.8	0.68	2.0	2.1	4	x	0.0
Cc1ccc2nc(/N=C(\N)NC(=O)NC3CCCCC3)nc(C)c2c1	2.5	x	x	7.6	2	4%	0.5
COc1nnc(-c2ccc(C(=O)N3C[C@@H]4C[C@H](C3)c3cccc(=O)n3C4)cc2)c2ccccc12	-1.5	0.72	1.5	x	4	-8%&12%	x
CC(C)C(=O)Nc1nc(-c2ccccc2)ns1	0.0	0.63	1.0	-1.6	4	29%	-0.9
CCO/C(=C/c1sc2ccc(OC)cc2[n+]1CCCS(=O)(=O)[O-])CC	0.4	0.69	21*	0.9	-12	6%	-0.1
CCOC(=O)CN1C(=O)C(C)(C)Oc2ccc(C(=O)Nc3ccccc3OC)cc21	-1.3	0.66	5.3	2.8	-2	7%	1.2
O=C(CSc1ncnc2sc3c(c12)CCC3)N1CCOCC1	-9.8	0.68	0.1	2.1	-12	21%	0.2

With a hit mark in UCH37 DUB inh, of those listed so far:
compound	UCH37 DUB inh	LANA-H2B inh	B2AR ag	Vif TR-FRET	A1 inh
CCO/C(=C/c1sc2ccc(OC)cc2[n+]1CCCS(=O)(=O)[O-])CC	21*	0.9	-12	6%	-0.1
